# From PubChem
# Sa growth inh = S. aureus growth inhibition at 42 and 30 °C, primary screen, LtaS inhibitor project, RN4220, two temperatures; OD600, 20 h, 42 °C; active compounds read low; relative growth, % (no concentration beside the values); 170,000 tested, 0.53% active; AID 720641, 2013;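 active means growth at 42 °C up to 50% and 20 or more points under that at 30 °C, or under 10% at both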;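 further: 300 nL library stock went into each well; scaled to the means of positive and negative controls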
# GIV-Gai inh = inhibitors of GIV peptide binding to Galpha-i3, primary screen, biochemical, fluorescence polarization, FITC-GIV GBA peptide, rat Galphai3; AID 1224905, 2016; 210,000 tested, 0.42% active; percent of control (FP), % (test concentration not listed); 90 min; active compounds read low; scaled: aluminum fluoride 0%, vehicle 100%; Guanine nucleotide-binding protein G(i) subunit alpha-3 (Rattus norvegicus), P08753;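 active means replicate mean at 85% of control or lower, very high polarization wells dropped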;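 further: lower values mean more displacement of the GIV peptide from Galpha-i3; wells of about 15 µL received 100 nL stock; the first replicate is given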
# Target sequence (P08753 whole entry, looked up): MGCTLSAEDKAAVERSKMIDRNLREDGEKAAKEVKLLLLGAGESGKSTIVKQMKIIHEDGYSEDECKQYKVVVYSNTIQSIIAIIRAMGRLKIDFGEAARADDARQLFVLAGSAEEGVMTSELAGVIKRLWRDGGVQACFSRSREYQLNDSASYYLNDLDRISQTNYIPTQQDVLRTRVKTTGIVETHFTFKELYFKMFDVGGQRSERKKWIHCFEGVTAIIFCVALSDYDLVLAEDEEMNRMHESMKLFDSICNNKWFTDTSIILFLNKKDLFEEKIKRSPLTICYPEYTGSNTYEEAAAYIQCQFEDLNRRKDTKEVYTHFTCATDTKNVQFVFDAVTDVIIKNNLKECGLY
# HCMV UL50-53 inh = inhibitors of HCMV UL50-UL53 interaction, biochemical, HTRF | AID 1918969, 2023 | HCMV UL50-UL53 nuclear egress complex (human cytomegalovirus) | 190,000 tested, 0.15% active | normalized percent inhibition | inhibition, % (test concentration not listed);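 active means both replicates at 50% or more, plus weaker picks with an unusually low signal ratio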;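 further: stock transfer was 100 nL into about 20 µL; 0% = negative control wells and 100% = wells with untagged competitor protein; inactives centre near -12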
# Sa growth inh second temp = recorded beside Sa growth inh, whose call it bears; relative growth, %; measured here: growth at 30 °C;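 optical density after 20 h as mean of two plates; 100% = untreated growth and lower means inhibition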
# Active calls of the source: *; · = no result given; & = joins results of further samples.
# Screens in order – HCMV UL50-53 inh	GIV-Gai inh	Sa growth inh	Sa growth inh second temp
- CC1(C)CSC(=NCCc2ccccc2)N1C(=O)/C=C/c1ccco1
  -26	·	86	90
- CN1C(=O)C(Cc2ccccc2)c2cc(Br)ccc21 (stereo not given)
  -21	106	·	·
- CN1CCN(c2ccc(NC(=O)c3ccco3)cc2)CC1
  -3	99	95	89
- O=C(Oc1cc(=O)oc2ccccc12)c1ccco1
  -4	99	74	83
- CC(C)=NOCC(=O)Nc1ccccc1C
  -8	105	105	81
- COc1ccc(NC(=O)c2ccc(CN3C(=O)CCn4nccc43)cc2)cc1OC
  -12	106	·	·
- CCOC(=O)c1oc2ccccc2c1CSc1nnc(-c2ccc(C)cc2)n1N
  -16	·	94	84
- COC(=O)NCCOc1cc(C)ccc1C
  4	100	102	82
- COc1ccc(CC(=O)N2CCCC2)cc1
  -3	96	102	86
- Cc1ccc(NC(=O)Cc2coc3ccc(C(C)C)cc23)cc1Cl
  1	112	110	83
- CS(=O)(=O)N1CCN(CC(=O)NC2CCCCC2)CC1
  -2	105	108	78
- CC1=C(C(=O)OCC2CCCO2)C(c2ccccc2OCc2ccccc2)NC(=O)N1 (stereo not given)
  1	108	·	·
- CSc1ncc(Cl)c(C(=O)Nc2cccnc2)n1
  -8	106	90	79
- CC(C)c1ccc(-c2noc(C3CCCN(C(=O)Cc4cccs4)C3)n2)cc1 (stereo not given)
  -8	102	102	65
- Cc1ccc(C)c(NC(=O)C2CCN(S(=O)(=O)c3c(C)noc3/C=C/c3cccs3)CC2)c1
  -32	104	97	92
- COc1ccc(OCC(=O)N2CCN(C(=O)c3ccc(OC)c(OC)c3)CC2)cc1
  -6	109	102	111
- Cc1cccc(NC(=O)CNC(=O)OCc2ccccc2)c1
  -12	·	101	84
- Cc1cc(C)c2nc(C(F)(F)F)nc(NCc3ccc4c(c3)OCO4)c2c1
  9	107	104	102
- Cc1cc(-n2c(C)cc(CNC3CC(C)(C)NC(C)(C)C3)c2C)no1
  -17	·	75	96
- O=C1CSc2ccc(C(=O)NCCCn3ccnc3)cc2N1
  -20	·	77	88
- c1ccc(CN2CCC(NN3CCOCC3)CC2)cc1
  -19	100	107	85
- O=C(COC(=O)CSc1ccc2ccccc2c1)NC1CC1
  -36	·	90	91
- COC(=O)C1C(=O)C2=C(CC1C)Nc1ccccc1NC2c1cccc(Br)c1 (stereo not given)
  5	·	75	67
- COc1cc(-c2noc(-c3nnn(-c4cccc(Cl)c4C)c3C)n2)cc(OC)c1OC
  -26	100	103	84
- CN(C)c1ccc(C(C(=O)NCc2ccccc2)N(Cc2ccco2)C(=O)c2snc(C(N)=O)c2N)cc1 (stereo not given)
  -10	106	76	106
- COc1ccc(-n2c(C)cc(-c3csc(/N=C/N(C)C)n3)c2C)cc1
  -7	·	61	70
- c1ccc(-c2cc(N3CCCCC3)c3ccccc3n2)nc1
  -3	106	117	87
- COc1ccccc1CNC(=O)C1(C)COc2c(oc3ccccc23)C(=O)N1Cc1ccccc1F (stereo not given)
  -34	104	·	·
- CN(C(=O)c1cccc(N)c1)c1ccccc1
  -10	101	107	89
- CCOc1ccccc1C1Nc2ccccc2-n2c(-c3ccccc3)c3c(=O)n(C)c(=O)n(C)c3c21 (stereo not given)
  -11	104	·	·
- COc1ccccc1NC(=O)c1ccc(-c2csnn2)cc1
  -5	97	100	87
- CCCCC(=O)Nc1ccc2nc(SCC(=O)N3CCCC3)sc2c1
  -24&-5	108&107	100	83
- CC1=C(C(=O)Nc2ccc(C)cc2C)C(CC(C)C)n2nc(SCc3ccccc3C)nc2N1 (stereo not given)
  -11	100	107	86
- COc1ccc(CCNC(=O)c2cccs2)cc1OC
  -9	102	94	94
- CSc1ccc(CCNC(=O)c2cc3cc4cc(C)ccc4nc3s2)cc1
  ·	101	103	103
- Cc1[nH]nc(CSSCc2n[nH]c(C)c2C(=O)NN)c1C(=O)NN
  -10	98	79	110
- COc1ccccc1N1CCN(c2ccc(SCC(=O)Nc3cccc(C)c3C)nn2)CC1
  -20	112	·	·
- CC(OC(=O)C1CCCN1S(=O)(=O)c1ccc(Cl)cc1)C(=O)Nc1ccc(C(N)=O)cc1 (stereo not given)
  -23	·	119	86
- Oc1oc(-c2cccs2)nc1/C=C1\C=Nc2ccccc21
  -19	·	109	83
- CCCCn1cnc2c(c1=O)c1nc3ccccc3nc1n2CCc1ccc(OC)cc1
  -30	100	97	105
- Cc1cc2nnc(SCC(N)=O)n2c2ccccc12
  -43	·	113	85
- CCN(CC)C(=O)CSc1nc2nc(C)cc(C)c2c(=O)[nH]1
  ·	102	117	97
- COc1cccc2c1cc1c(=O)n(CC(=O)N3CCCCC3)nc(C)n12
  -21	96	102	95
- O=C(NCCCn1ccnc1)C1CCN(S(=O)(=O)c2ccc(F)cc2)CC1
  ·	104	89	78
- Cc1c(NC2=CC(=O)CCC2)c(=O)n(-c2ccccc2)n1C
  -2	100	86	86
- Cc1ccn2c(=O)c(NC(=O)c3ccccc3C)cnc2c1
  -87	99	·	·
- COc1ccc(NC(=O)c2c(O)c3ccccc3[nH]c2=O)cc1
  -11	111	·	·
- CCCCN(CC)S(=O)(=O)c1ccc2c(c1)CCN2C(C)=O
  -4	104	94	88
- COc1ccc2o/c(=N\c3sc4c(c3C(N)=O)CCCC4)c(C(N)=O)cc2c1
  -20	101	·	·
- Cc1cccc(N=C(c2ccccc2)c2c(C)[nH]n(-c3ccccc3)c2=O)c1
  3	103	·	·

# Remaining list, next part:
# Screens in order – HCMV UL50-53 inh	GIV-Gai inh	Sa growth inh	Sa growth inh second temp
- OCC1CCCN1CC1CC1 (stereo not given)
  ·	102	124	106
- CCOC(=O)c1oc2nc(-c3ccccc3)cc(-c3ccco3)c2c1N
  -14	145	97	91
- N#Cc1cc2c(nc1SC1CC(=O)N(c3ccccc3)C1=O)CCCCC2 (stereo not given)
  -46	105	·	·
- O=C(NCC1CCCO1)c1c(O)nc2ccccn2c1=O (stereo not given)
  -25	106	·	·
- Cc1ccc(Cl)cc1N1CCN(C(=O)Cn2cnc3sc(C)c(S(=O)(=O)N4CCC(C)CC4)c3c2=O)CC1
  -25	106	120	91
- CCc1ccc(OCC(O)CN)cc1 (stereo not given)
  6	107	98	107
- CN(C(=O)CSc1nnc(-c2ccncc2)o1)C1CCCCC1
  -31	102	·	·
- O=C(Nc1nn2cnnc2s1)C1CCCC1
  -15	·	102	97
- CC(C)N(Cc1ccccc1)S(=O)(=O)N(C)C
  -7	·	100	100
- CCCCc1nn2c(=O)cc(COC(=O)CNC(=O)c3ccccc3C)nc2s1
  ·	105	84	88
- O=C(NCCCN1CCOCC1)c1nn2c(c1Cl)NC(c1ccc(Cl)cc1)CC2C(F)(F)F (stereo not given)
  -24	94	·	·
- O=S(=O)(c1cccs1)N1CCN(c2cccc(C(F)(F)F)c2)CC1
  -17	·	95	82
- Cc1ccc(C)c(N2CCN(CCCNC(=O)c3cn4c5c(ccc(Cl)c5c3=O)OC(C)C4)CC2)c1 (stereo not given)
  30	106	97	72
- Cc1n[nH]c(C)c1-c1nc2ccccc2[nH]1
  -18	·	105	95
- Cc1nnc(SCCNS(=O)(=O)c2ccccc2)s1
  -45	103	83	96
- CCOC(=O)c1c(C)n(-c2ccccc2)c2c1cc(OC(=O)c1ccc(C)cc1)c1ccccc12
  -16	103	·	·
- COc1ccc(N2CCN(C=C3C(=O)N(C)C(=O)N(C)C3=O)CC2)cc1
  -14	·	78	94
- O=C(NCc1ccccc1)c1ccc2c(c1)nc1n2CCCCC1
  ·	101	94	94
- O=C(COc1ncnc2ccccc12)Nc1ccccc1
  -38	·	123	90
- O=S(=O)(c1ccc(Cl)cc1)c1cnn(S(=O)(=O)c2ccccc2)c1-c1ccc(Cl)cc1
  -16	103	113	97
- CCSc1nnc(-c2ccccc2)n1Cc1ccc2c(c1)OCO2
  5	·	90	95
- Cc1oc(S(=O)(=O)N2CCCC2)cc1C(=O)NCCN1CCNC1=O
  -17	100	87	90
- CCOC(=O)c1c(O)c(O)c(C(=O)OCC)n1-c1ccc(OC)cc1
  -29	103	77	83
- Cc1ccc(C)c(N2CCN(C(=O)CCNS(=O)(=O)c3ccc4c(c3)CCN4C(=O)C3CC3)CC2)c1
  ·	107	107	82
- CCNc1nc(-c2ccc(C)cc2)cs1
  -3	97	76	81
- CCc1ccc(NC(=O)N(CCC(C)C)C(C)c2ccco2)cc1 (stereo not given)
  1	112	91	98
- COc1cc(/C=C2\SC(=S)N(CC(=O)Nc3ccccc3C(=O)O)C2=O)cc(OC)c1OC
  -44	110	·	·
- COc1cccc(C2CC(c3ccccc3)=NN2C(=O)CCC(=O)O)c1OC (stereo not given)
  -29	101	·	·
- CC1=C(C(=O)Nc2ccc(C)cc2C)C(c2ccc(F)c(Br)c2)n2ncc(C(=O)Nc3ccc(C)cc3)c2N1 (stereo not given)
  0	107	·	·
- Cn1cc(CCC(=O)NCCCN2CCC(N3CCCCC3)CC2)c2ccccc21
  -14	101	96	91
- COCC(C)NCc1cccc(OC)c1 (stereo not given)
  7	·	102	100
- O=S(=O)(NCCCc1ccccc1)c1cccc2nsnc12
  -96	99	84	82
- CCOC(=O)c1oc2ccc(S(=O)(=O)n3nc(-c4cc(OC)cc(OC)c4)cc3N)cc2c1C
  9	106	105	84
- COc1ccc(C(=O)COC(=O)c2ccc(N)cc2)cc1
  0	95	108	105
- O=C(CSc1nc(-c2ccccc2)cc(=O)[nH]1)NCC1CCCO1 (stereo not given)
  0	107	100	99
- CC1(C)CC(=O)CC(=NCC(=O)O)C1
  -1	·	119	90
- CCc1nnc2c3ccccc3nc(Nc3ccc(C(C)=O)cc3)n12
  ·	104	91	89
- CCOC(=O)N1CCC(NC(=O)c2ccc3c(c2)N(Cc2ccc(F)cc2)C(=O)c2ccccc2S3=O)CC1 (stereo not given)
  -14	101	87	75
- Cc1cc(C(=O)N2CCCc3ccccc32)no1
  1	103	114	92
- CCCC(=O)Nc1cccn(Cc2cccc(OC)c2)c1=O
  50*	97	51	91
- COc1ccc(NC(=O)CCc2nc3ccc(C)cc3[nH]2)c(OC)c1
  -20	106	101	93
- COC(=O)c1sc(N)c(C(=O)OC)c1CN1CCOCC1
  -12	·	101	95
- Cc1ccc(NC(=O)c2cccc(N3CCCS3(=O)=O)c2)cc1
  ·	107	108	93
- Cc1ccccc1C(=O)Nc1cccc(N(C)C)c1
  -12	105	106	94
- CCOC(=O)c1c(-c2ccccc2)oc2c1cc(OC(=O)c1ccc(OCC)cc1)c1ccccc12
  -5	105	·	·
- COc1ccc(S(=O)(=O)NCC(c2cccnc2)N2CCN(C)CC2)cc1OC (stereo not given)
  -45	107	87	89
- C=CCn1c(-c2ccc(OC)c(OC)c2)cs/c1=N\c1ccccn1
  -14	99	87	81
- Oc1ccccc1-c1nc(/C=C/c2ccc(F)cc2)nn1-c1ccccc1
  -13	104	111	93
- Cc1c(C(=O)NCCCN2CCCCCC2)oc2ccc3nc(N(C)C)sc3c12
  ·	105	129	99
- COc1cc(OC)cc(-n2nc(C(=O)NCc3ccccc3OC)c3ccccc3c2=O)c1
  10	·	123	91

# Further compounds:
# Screens in order – HCMV UL50-53 inh	GIV-Gai inh	Sa growth inh	Sa growth inh second temp
- O=C(c1cccc(Cl)c1)n1nc(-c2cccnc2)nc1NCc1ccccc1
  -14	103	95	87
- COc1ccccc1C1CC(=O)Nc2n[nH]c(C)c21 (stereo not given)
  29	109	·	·
- CCNC(=O)c1ccc2nc(CCc3ccccc3)oc2c1
  ·	104	80	91
- CCCCCCCCNC(C)C(O)c1ccc(SC(C)C)cc1 (stereo not given)
  -35&-12	·	89	88
- Cc1ccc(NC(=O)CCCc2nc(-c3ccco3)no2)cc1Cl
  -30	102	106	86
- CCN(CCCNC(=O)c1cc2c(=O)n(C)c3ccccc3c2s1)Cc1ccccc1
  -61	102	101	86
- COc1ccc(NC(=O)CN2C(=O)CCn3nc(-c4cccn4C)cc32)cc1Cl
  ·	105	82	77
- Cn1c(=O)n(-c2ccccc2)c(=O)c2cc3c(nc21)CC(C)(C)OC3
  -34	104	·	·
- COC1C(OC)N(S(C)(=O)=O)CCN1S(C)(=O)=O (stereo not given)
  -6	103	104	91
- O=C(NCCCN1CCCCC1)c1cc2n(n1)CCCN(Cc1ccc(F)cc1)C2=O
  -14	96	·	·
